Bead autofluor: compound fluorescence in toxin protease inhibitor counterscreen; compound autofluorescence counterscreen, microsphere flow cytometry; hits give high values; fluorescence intensity (test concentration not listed); actives 3.1% (n = 360,000); AID 624483;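 active means at least 3 SD above the mean of all compounds, about 16000 in these data; inconclusive means too few beads counted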;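 further: 100 nL of 1 mM stock went into each well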
BJeLR viability: kills HRASV12-expressing BJeLR cells; actives 0.17% (n = 300,000); BJeLR (HRASV12) viability, CellTiter-Glo ATP luminescence, 48 h; reference of the scale not given here; inhibition, % (no concentration beside the values);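 active means replicate mean above 50%; inconclusive means above 50% but judged a plate artefact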;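 further: 50 nL library stock added to about 25 µL; numbers are from one replicate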
PrP UTR inh: inhibition of PrP 5' UTR reporter expression. actives 0.35% (n = 340,000). cell-based PrP 5' UTR mRNA reporter, plate reader. inhibition, % (test concentration not listed);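 active means every replicate at 50% or more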;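 further: 0 = median of the neutral control wells; tested in H4 reporter cells; numbers are from one replicate; inactives centre near -14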
Sa RN4220 lethal: S. aureus RN4220 growth inhibition; OD600, 16 h; AID 1259311; actives 0.33% (n = 330,000); inhibition, % (no concentration beside the values);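 active means z-score of -3 or lower and OD600 up to 0.18 on both plates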;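 further: plate controls were untreated cells for no effect and reference antibiotic for full effect; stock transfer was 100 nL into about 80 µL; one replicate is shown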
Sa ugtP lethal: kills S. aureus RN4220 lacking UgtP. actives 0.54% (n = 330,000). S. aureus RN4220 ugtP deletion, OD600 growth, 16 h; some inactives read as strong as hits. growth inhibition, % (no concentration beside the values);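 active means z-score under -3 and OD600 up to 0.15 on both plates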;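 further: plate controls were untreated wells for no effect and antibiotic for full effect; wells of about 80 µL received 100 nL stock; the first replicate is given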
Mtb hypoxia inh: Mtb hypoxia fluorescent reporter inhibition; M. tuberculosis hypoxia-regulated fluorescent reporter, fluorescence; fluorescence inhibition, % (test concentration not listed); actives 0.1% (n = 300,000); AID 1159583;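 active means 35 to 45% if threefold the growth effect, above 45% if 1.5-fold the growth effect; inactive means the rest, general growth blockers included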;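 further: wells of about 50 µL received 100 nL stock; 0% = vehicle wells and 100% = reference inhibitor wells; whole bacteria with a GFP reporter of the hypoxia response; strong numbers were not always called active; many hits fall short of the cut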
Mtb hypoxia inh growth: second read-out of Mtb hypoxia inh, no call of its own (marks repeat the call); growth inhibition, %; measured here: M. tuberculosis growth (absorbance);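 0% = vehicle and 100% = reference antibiotic; read after six days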
Starred values were filed as active, the others as inactive; ? = inconclusive; / = not tested or not shown.

SMILES	Bead autofluor	BJeLR viability	PrP UTR inh	Sa RN4220 lethal	Sa ugtP lethal	Mtb hypoxia inh	Mtb hypoxia inh growth
NC(=O)c1ccc(SCC(=O)NC2CCCCC2)c([N+](=O)[O-])c1	3184	0	-8	19	6	-11	2
COc1ccc(NC(=O)CNC(=O)c2cccs2)cc1Cl	4344	7	-6	2.9	3	16	8
CCC(C)NC(C(=O)Nc1ccc(Cl)c([N+](=O)[O-])c1)c1ccccc1 (stereo unspecified)	2047	-3	-4	-8.4	-16	0	9
COc1ccc(OCc2nnc(SCC(=O)Nc3cccc(C(C)=O)c3)o2)cc1	3779	/	1	0.6	-1	-1	2
COc1cccc(OC)c1NC(=O)CN(C)S(=O)(=O)c1ccc2c(c1)OCCO2	3994	-12	-23	5.4	-3	10	5
Cc1ncc(CN2CCN(C3CCCC3)C(CCO)C2)s1 (stereo unspecified)	4075	/	-25	5.5	5	-5	1
Cc1cc(C)nc(/N=C(\N)Nc2ccc(F)c([N+](=O)[O-])c2)n1	6055	-4	-18	/	/	/	/
Cc1cccc(C)c1NC(=O)CN(C)C(=O)c1cccc(NS(=O)(=O)c2ccccc2)c1	4335	2	3	-0.9	3	8	-6
O=C(CSc1nnc(C2COc3ccccc3O2)o1)N1CCOCC1 (stereo unspecified)	4720	-1	9	-2.6	-1	/	/
Cc1cc(C)c(-c2csc(NC(=O)C3=NN(c4ccccc4)C(=O)CC3)n2)c(C)c1	2529	/	0	-7.0	42	-16	2
CC1NC(=O)NC1CCCCCC(=O)O (stereo unspecified)	/	/	/	7.6	-3	6	-2
Cc1ccccc1CN(c1ccc(C(=O)N/N=C/c2ccc(OCC(N)=O)cc2)cc1)S(C)(=O)=O	2005	-2	-23	/	/	/	/
NS(=O)(=O)c1ccc(NC(=S)NCc2ccccc2)cc1	1937	17	-18	2.9	14	/	/
Cc1cc(C)cc(NC2=CC(=O)CC(c3ccco3)C2)c1 (stereo unspecified)	7649	-8	-26	6.7	6	15	10
COCCCn1nnnc1SCC(=O)Nc1nc(C)c(C)s1	3838	4	-13	0.4	3	/	/
Cc1ccc(S(=O)(=O)NC(=O)NCc2ccco2)cc1	2836	/	10	0.7	-1	-3	-2
Cn1c(SCC(=O)N(C2CCCCC2)C2CCCCC2)nnc1-c1cccs1	8106	-2	-5	4.6	2	1	3
CSc1ncc(/C=C2/C(=O)NC(=O)N(c3ccc(C(C)C)cc3)C2=O)cn1	2548	-9	-15	5.8	5	4	7
COc1ccc(-c2nc(CS(=O)CC(=O)NCc3ccc4c(c3)OCO4)c(C)o2)cc1OC (stereo unspecified)	3726	5	-19	9.3	1	-9	-4
COc1cc(/C=C2/C(=O)NN(c3ccc(F)cc3)C2=O)cc(Cl)c1O	4228	7	-7	8.9	17	0	-3
COc1ccc(CNC(=O)Cc2c(C(=O)O)[nH]c3ccccc23)cc1	9792	-2	-29	3.2	7	-2	10
O=C(CSCc1ccccc1)Nc1ccc2c(c1)OCO2	4154	7	-79	0.2	7	/	/
Cc1ccc2oc(N=C(N)NC(=O)C3CC3)nc2c1	/	/	/	0.6	10	8	-1
Cn1c(Cn2c(C(F)(F)F)nc3ccccc32)nc2ccccc21	5758	-4	-26	-1.8	3	/	/
O=C(O)CCC(=O)OCCc1cc2ccccc2c(=O)o1	2874	/	2	-2.1	-4	0	7
SMILES	Bead autofluor	BJeLR viability	PrP UTR inh	Sa RN4220 lethal	Sa ugtP lethal	Mtb hypoxia inh	Mtb hypoxia inh growth
CNC(=S)Nc1ccc(OC)c(OC)c1	/	-5	-5	-2.0	2	11	0
CN1CCC(=O)N(C(CSc2ccc(Br)cc2)Cc2ccccc2)CC1 (stereo unspecified)	/	/	/	3.6	-6	7	11
Cc1c(N(C(=O)Nc2ccccc2)C2=NCC(C)S2)c(=O)n(-c2ccccc2)n1C (stereo unspecified)	2947	-3	-5	-7.7	-4	13	13
CCC1=NN2C(=N)/C(=C\c3ccc(SCc4ccco4)o3)C(=O)N=C2S1	4020	5	-6	7.9	4	-2	1
CCCCC(=O)Nc1ccc(NCc2ccc(C)s2)cc1	3719	-4	-17	-4.5	6	18	3
O=C(CSc1nc(=O)n(CCCN2CCOCC2)c2c1CCC2)Nc1ccccc1F	5041	11	-12	-0.6	7	3	12
C#Cc1ccc([C@@H]2C=C(C(=O)O)O[C@H](OCCCCO)C2)cc1	4035	8	-21	/	/	/	/
COc1ccccc1NC(=O)CCN1C(=O)C2C3CCC(C3)C2C1=O (stereo unspecified)	5113	-11	-17	2.1	2	13	13
COc1ccc(S(=O)(=O)Nc2ccccc2C(=O)N2CCCC2)cc1C	3814	2	-14	2.3	4	13	4
COc1ccc(C=Nn2cnnc2)cc1Cn1nc(C)c([N+](=O)[O-])c1C	/	/	/	6.4	-8	2	4
Cc1ccc(CNC(=O)c2ccccc2N)cc1	19203*	5	-4	4.7	4	4	1
CCCOc1ccc(-c2cn3ccccc3n2)cc1	3455	/	35	3.0	-4	12	11
CCN(Cc1ccccc1)C(=O)COC(=O)c1cc(Cl)nc(Cl)c1	4397	-4	-25	2.3	-1	5	2
CC(C)NC(=O)C1CCN(C2CCN(Cc3ccc4cccc(F)c4n3)CC2)CC1	5485	2	-21	3.0	6	5	9
CC(Sc1nnc2ccccn12)C(N)=O (stereo unspecified)	4374	-18	0	4.3	6	6	9
Cc1sc2nc(SCCO)n(-c3ccccc3)c(=O)c2c1C	4071	0	-20	5.3	1	5	2
CCOC(=O)C1=C(N)c2ccccc2CC1C1CCCC1 (stereo unspecified)	4269	1	-2	-11	22	4	4
Cc1cc(C)nc(SCC(=O)N/N=C\C(Br)=C\c2ccccc2)n1	2474	3	0	/	/	/	/
O=C(COc1ccc(Br)cc1)NCCO	1995	-9	-14	1.0	-2	-5	3
Cc1ccc(C(OCC(O)CNC(CO)C(O)c2ccc([N+](=O)[O-])cc2)c2ccccc2)cc1 (stereo unspecified)	5929	5	-12	-3.7	5	5	5
O=C(O)/C=C/c1cccnc1	3820	-6	-17	7.4	3	-2	-1
N/C(=N/O)c1ccccc1N1CCC(Cc2ccccc2)CC1	2806	15	3	/	/	/	/
COc1cc(C=NNC(=O)CNC(=O)c2ccco2)ccc1O	/	/	/	0.9	1	-1	3
COc1ccc2c(c1)C=C(CN1CCN(C(C)C)C(CCO)C1)CO2 (stereo unspecified)	4539	4	-23	3.3	9	10	4
CC(C)(C)C(=O)NCCc1nc2ccccc2n1CC(=O)c1ccccc1	6313	3	-27	-5.4	-3	7	11
SMILES	Bead autofluor	BJeLR viability	PrP UTR inh	Sa RN4220 lethal	Sa ugtP lethal	Mtb hypoxia inh	Mtb hypoxia inh growth
CCN(Cc1nc(-c2cccc(C)c2)no1)C(=O)c1ccco1	4519	-4	-10	4.8	2	15	-1
CCOCCCn1c(SCC(=O)Nc2ccc3[nH]c(=O)[nH]c3c2)nc2ccccc2c1=O	6908	-1	0	3.1	4	3	-3
Cc1cccc(C(=O)NCC(=O)OCC(=O)c2cc(C)n(CC3CCCO3)c2C)c1 (stereo unspecified)	8189	-3	-23	2.5	2	12	7
COC(=O)c1ccc(C2CC(=O)Nc3cc(OC)c(OC)cc32)cc1 (stereo unspecified)	6806	14	-1	2.6	4	10	11
O=C(COc1cc(F)ccc1[N+](=O)[O-])Nc1cccc(S(=O)(=O)NC2=NCCC2)c1	8285	/	-20	4.5	-3	1	-4
C=CCNC(=S)N1CCC(C(=O)c2ccc(OC)cc2)CC1	9966	2	-16	3.9	-3	-1	4
Cc1cc(-c2sccc2Br)nc(-n2cccc2)n1	4032	-2	13	-3.0	20	-2	-4
CC(Cl)C(=O)Nc1ccccc1C#N (stereo unspecified)	2361	-14	-4	5.5	12	13	10
O=C(c1ccco1)[C@@H]1[C@@H]2C(=O)N(c3ccc(Br)cc3)C(=O)[C@@H]2C2c3ccccc3C=CN21 (stereo partly specified)	3388	/	-31	-25	-9	-1	1
COc1ccccc1C1C(C(=O)c2cc3ccccc3o2)=C(O)C(=O)N1CCN(C)C (stereo unspecified)	3317	7	-17	1.4	-2	/	/
COc1ccccc1NC(=S)NC(=O)CCCOc1ccc(Cl)cc1Cl	12865	22	-7	3.3	6	3	0
CNC(=O)C(=O)NCC1OCCN1S(=O)(=O)c1ccc(OC)c(OC)c1 (stereo unspecified)	5140	0	-4	-0.1	1	-9	-5
CC(=NNC(=O)c1ccccc1O)C1CC1	/	/	/	5.4	5	5	1
CC(C)CN1CCN(Cc2ccc(Oc3ncccn3)cc2)CC1CCO (stereo unspecified)	6146	3	-45	0.8	4	-2	-4
Cn1c(=O)n(CCc2ccccc2)c(=O)c2c1nc1n2CCN1Cc1ccco1	3287	1	-31	-0.8	1	1	2
COc1ccccc1C(=O)Nc1cccc(SC)c1	4422	-5	-45	9.7	4	18	22
NC(=O)C[n+]1ccc(C=NO)cc1	/	/	/	8.4	-3	15	2
O=C1CN(C(=O)c2ccccc2[N+](=O)[O-])C(c2ccccc2)c2cc(Br)ccc2N1 (stereo unspecified)	3666	7	-10	3.2	-5	-2	10
CC(=O)N(c1ccc2oc(=O)sc2c1)S(=O)(=O)c1ccccc1	2395	-6	-9	-1.8	-1	/	/
CCC(C)Nc1nnc(SCC(=O)c2c(N)n(C3CC3)c(=O)[nH]c2=O)s1 (stereo unspecified)	3657	/	5	1.4	0	6	5
COC(=O)C1=C(CS(=O)(=O)c2ccc(Cl)cc2)NC(=O)NC1c1ccc(O)c(OC)c1 (stereo unspecified)	4989	10	-11	5.2	11	10	8
Cc1ccc(CCNC(=O)C2CC(c3ccccc3[N+](=O)[O-])=NO2)cc1 (stereo unspecified)	2743	-5	-19	1.4	0	6	10
Cn1cc(CNCc2ccc(-n3cccn3)cc2)c(-c2ccccc2F)n1	4929	2	-19	2.2	2	7	0
O=S1(=O)CCC(NC(=S)Nc2ccccc2)C1 (stereo unspecified)	?	-10	/	5.1	6	10	3
COc1cc(NC(=O)COC(=O)c2cc(S(=O)(=O)N3CCOCC3)ccc2F)cc(OC)c1	4207	/	-24	3.7	5	12	3

Results in Sa RN4220 lethal (4 entries from above):
smiles | Sa RN4220 lethal
COc1ccccc1C(=O)Nc1cccc(SC)c1 | 9.7
NC(=O)C[n+]1ccc(C=NO)cc1 | 8.4
O=C1CN(C(=O)c2ccccc2[N+](=O)[O-])C(c2ccccc2)c2cc(Br)ccc2N1 (stereo unspecified) | 3.2
CC(=O)N(c1ccc2oc(=O)sc2c1)S(=O)(=O)c1ccccc1 | -1.8

(more compounds)
SMILES	Bead autofluor	BJeLR viability	PrP UTR inh	Sa RN4220 lethal	Sa ugtP lethal	Mtb hypoxia inh	Mtb hypoxia inh growth
CCCNC(=S)NNC(=O)c1cc(C2CC2)nc2ccccc12	5886	-4	-16	4.4	4	16	14
O=C(CSc1nc(C(F)(F)F)cc(=O)[nH]1)NCc1ccc2c(c1)OCO2	?	18	-15	4.0	3	5	0
Cc1cccc(C)c1NC(=O)C1(C)c2cccc[n+]2CC(=O)N1Cc1cccs1 (stereo unspecified)	3444	6	-17	3.1	8	-8	7
O=C(NCC1CCCO1)c1cccc2c1C(=O)c1ccc(Cl)cc1S2(=O)=O (stereo unspecified)	/	/	/	-2.2	-9	-5	3
CCOc1ccc(-c2ncncc2-c2ccc(OC)cc2)c(O)c1	2129	-2	2	-0.1	5	/	/
NC(=NOC(=O)c1cc([N+](=O)[O-])ccc1Cl)c1ccccn1	/	/	/	3.3	9	21	3
CCCn1nnnc1SCC(=O)NCc1cccs1	4643	4	-21	3.4	5	/	/
Cc1nnc(SCc2cccc3ccccc23)s1	4118	11	-45	-1.6	-3	3	-6
Cc1cc(C)c2c(N)c(C(=O)N3CCCCCC3)sc2n1	8567	-5	-30	4.1	-4	13	1
COc1ccc(N2CCN(C(=O)COc3ccc4c(C)cc(=O)oc4c3C)CC2)cc1	5442	-7	-4	2.8	6	-2	5

Of the compounds above, these contain a COOH group:
SMILES	Bead autofluor	BJeLR viability	PrP UTR inh	Sa RN4220 lethal	Sa ugtP lethal	Mtb hypoxia inh	Mtb hypoxia inh growth
CC1NC(=O)NC1CCCCCC(=O)O (stereo unspecified)	/	/	/	7.6	-3	6	-2
COc1ccc(CNC(=O)Cc2c(C(=O)O)[nH]c3ccccc23)cc1	9792	-2	-29	3.2	7	-2	10
O=C(O)CCC(=O)OCCc1cc2ccccc2c(=O)o1	2874	/	2	-2.1	-4	0	7
C#Cc1ccc([C@@H]2C=C(C(=O)O)O[C@H](OCCCCO)C2)cc1	4035	8	-21	/	/	/	/
O=C(O)/C=C/c1cccnc1	3820	-6	-17	7.4	3	-2	-1

Source: PubChem (several laboratories)
